FGF22 binding = FGF22 (human) thermal shift binding; hit rate 1.5% among 340,000; calls only at 9.99 µM; AID 651658; recombinant FGF22 thermal shift, SYPRO orange fluorescence; percent of sucrose octasulfate shift, DMSO zero; Q9HCT0;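 active means melting point raised past a set limit in the mean and every replicate; inconclusive means no clear call; three in four hits are not shown here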
Target sequence (Q9HCT0 whole entry, looked up): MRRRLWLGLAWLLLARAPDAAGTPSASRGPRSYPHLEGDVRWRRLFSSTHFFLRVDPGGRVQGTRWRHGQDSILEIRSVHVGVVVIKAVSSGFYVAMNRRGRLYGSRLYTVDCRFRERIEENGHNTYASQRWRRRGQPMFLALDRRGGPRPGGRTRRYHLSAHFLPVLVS
RanGTP-Imp inh = disruptors of Ran-importin-beta complex formation – biochemical, FRET, CFP-Ran, YFP-importin-beta, homogeneous, primary screen; cell-free CFP-Ran/YFP-importin-beta FRET ratio; inhibition, % (no concentration beside the values); hit rate 1.1% among 300,000;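 active means most replicates above 15%; inconclusive means exactly half above 15%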;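 further: 0% = DMSO wells and 100% = Ran loaded with GDP instead of GTP; wells of about 40 µL received 100 nL stock; the first replicate is given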
T cruzi repl = T. cruzi replication inhibition | T. cruzi beta-gal in NIH3T3, luminescence, 90 h | inhibition, % (concentration not given with the values) | hit rate 1.4% among 300,000 | AID 1885;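 active means mean inhibition across valid replicates above about 55%, limit read from the data; inconclusive means mean below that limit but half or more replicates reach it; inactive means mean below it, under half of replicates reach it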;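 further: signal also drops with host cell toxicity which is not excluded here; 0% = plate median of DMSO wells and 100% = zero luminescence signal; higher percent means less beta-gal luminescence so fewer parasites; stock transfer was 50 nL into about 50 µL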
ALR H2O2 inh = inhibitors of human sulfhydryl oxidase ALR; P55789; purified ALR, DTT oxidation, H2O2 HRP-luminol luminescence; inhibition, % (concentration not given with the values); hit rate 3.8% among 290,000;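 active means mean and each replicate at 75% or more; inconclusive means only one of the two met; inactive means neither met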;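 further: stock transfer was 7.5 nL into about 7.5 µL; 0% = neutral wells and 100% = wells with inactivated enzyme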
Target sequence (P55789 whole entry, looked up): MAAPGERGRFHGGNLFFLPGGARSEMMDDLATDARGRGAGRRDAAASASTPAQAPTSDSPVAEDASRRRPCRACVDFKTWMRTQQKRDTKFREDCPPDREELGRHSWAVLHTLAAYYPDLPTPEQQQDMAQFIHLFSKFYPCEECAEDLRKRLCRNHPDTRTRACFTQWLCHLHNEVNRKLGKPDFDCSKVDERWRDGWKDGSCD
rRNA inh HTS = inhibitors of bacterial rRNA selective over humanized ribosomes. E. coli WT GFP vs humanized-ribosome RFP mutants, fluorescence, 24 h; hits give low values; DMSO median 0, no signal -100. GFP signal change (wild-type ribosome), % (concentration not given with the values). hit rate 1.6% among 350,000. AID 720706;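 active means significant combined selectivity score with lowered wild-type GFP, culture density cut under 30%, mutant RFP and density less affected; inactive means any of these conditions unmet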; further: one replicate is shown; some compounds called inactive have numbers as strong as hits
Calb FLC = C. albicans growth modulation with fluconazole; growth inhibition, % (test concentration not listed); AID 1979; C. albicans CaCi-2 (fluconazole-resistant clinical isolate) + fluconazole, Alamar Blue growth, 48 h; hit rate 0.57% among 300,000;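 active means most replicates above 75%; inconclusive means exactly half above 75%; inactive means most below 75%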;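 further: all wells also contain fluconazole at 8 µg/ml as a sub-toxic cotreatment; 0% = median of DMSO wells and 100% = median of geldanamycin control wells; wells of about 8 µL received 7.5 nL stock; the first replicate is given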
Beta apoptosis = beta cell apoptosis inhibition; INS-1E cytokine-induced death, ATP luminescence, 48 h; percent of positive-control rescue, neutral wells zero; protection from apoptosis, % (concentration not given with the values); hit rate 0.8% among 300,000;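 active means all replicates at 75% or more, or half of them and the mean; inconclusive means half reach 75% but not the mean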;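 further: 0% = cytokine-treated negative control wells and 100% = positive control rescue; higher means more ATP so stronger rescue from cytokine killing; wells of about 40 µL received 100 nL stock; the first replicate is given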
AF4-AF9 inh = MLL-AF4/AF9 protein interaction inhibition | P42568 | AlphaScreen, biotin-AF4 peptide binding to FLAG-AF9 | inhibition, % at 10 µM | hit rate 0.47% among 350,000;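 active means every replicate reaching a set inhibition limit, whatever the replicate mean, cut at about 25% in these data; inconclusive means mean inhibition reaches that limit but some replicates miss it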;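 further: 0% = plate neutral control median and 100% = total signal loss; the record names both 10 and 1 µM as test concentration; the first replicate is given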
Target sequence (P42568 whole entry, looked up): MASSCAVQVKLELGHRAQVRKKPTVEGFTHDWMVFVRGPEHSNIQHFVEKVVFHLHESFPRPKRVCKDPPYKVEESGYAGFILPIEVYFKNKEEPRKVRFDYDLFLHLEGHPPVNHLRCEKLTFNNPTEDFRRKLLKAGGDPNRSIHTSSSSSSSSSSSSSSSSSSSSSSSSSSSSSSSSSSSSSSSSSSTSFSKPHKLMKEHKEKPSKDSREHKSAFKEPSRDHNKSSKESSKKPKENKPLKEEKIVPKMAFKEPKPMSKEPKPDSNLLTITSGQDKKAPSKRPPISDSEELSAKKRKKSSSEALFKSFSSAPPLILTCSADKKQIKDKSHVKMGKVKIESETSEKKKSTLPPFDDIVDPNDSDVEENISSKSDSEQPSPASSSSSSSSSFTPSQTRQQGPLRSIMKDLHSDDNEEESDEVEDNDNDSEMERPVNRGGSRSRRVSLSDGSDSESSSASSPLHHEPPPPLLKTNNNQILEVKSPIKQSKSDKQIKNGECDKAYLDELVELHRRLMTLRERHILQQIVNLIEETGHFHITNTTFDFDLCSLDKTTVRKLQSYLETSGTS
rRNA inh HTS OD600 = also measured in rRNA inh HTS; calls as there; OD600 change, %; measured here: OD600 growth;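 optical density of the mix in the first replicate; 0 = DMSO median and -100 = no signal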
rRNA inh HTS RFP = also measured in rRNA inh HTS; calls as there; RFP signal change, %; measured here: RFP humanized mutant strains;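 first replicate; 0 = DMSO median and -100 = no signal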
* = called active by the depositor; i = inactive; ? = inconclusive; . = not tested or not shown; & = joins results of further samples. Not all compounds are listed; rates above refer to the full screens.

SMILES | FGF22 binding | RanGTP-Imp inh | T cruzi repl | ALR H2O2 inh | rRNA inh HTS | rRNA inh HTS OD600 | rRNA inh HTS RFP | Calb FLC | Beta apoptosis | AF4-AF9 inh
Cc1ccc(-c2ccc(S(=O)(=O)N3CCCC3)cc2)cc1 | i | . | 12.3 | -2.3 | 7.7 | 2.5 | -6.5 | 7.8 | -4.3 | -3.5
Cc1nn(-c2ccccc2)c(Cl)c1C(=O)OCC(=O)N(C)c1c(N)n(Cc2ccccc2)c(=O)[nH]c1=O | i | 1.2 | -0.3 | -1.7 | 4.5 | -2.0 | -1.0 | 9.6 | -0.8 | 1.8
CC(=O)N/C(=C/c1ccc2c(c1)OCO2)C(=O)NC(Cc1ccccc1)C(=O)O (stereo not given) | . | 1.4 | 3.6 | -1.3 | 0.2 | -8.7 | -0.1 | -4.1 | -1.8 | 2.5
CN(C)Cc1c(C(=O)N/N=C/c2ccncc2)nnn1-c1nonc1N | i | -8.0 | 11.5 | 0.8 | 7.5 | 9.2 | -0.3 | -0.7 | 3.5 | -1.5
Cc1ccc(C)c(OCC(=O)OCC(=O)Nc2c(C)nn(-c3ccccc3)c2C)c1 | i | ? | -10.5 | 5.8 | 7.3 | 6.4 | 0.4 | -3.9 | 1.0 | -0.6
COc1ccc(S(=O)(=O)/N=C2/C=CC(=O)C(C)=C2C)cc1 | . | -1.1 | -13.2 | . | . | . | . | 72.8 | -14.7 | .
CCN(C(=O)CN(C)Cc1c(F)cccc1Cl)c1c(N)n(Cc2ccccc2)c(=O)[nH]c1=O | . | 4.6 | 0.0 | -15.0 | . | . | . | -7.7 | -4.0 | .
Cc1oc(-c2ccc(F)cc2)cc1-c1nn2c(-c3ccoc3C)nnc2s1 | . | -1.4 | -24.3 | 97.4* | . | . | . | -3.0 | -4.4 | .
O=C1c2ccccc2S(=O)(=O)N1CCOc1ccc(F)cc1 | . | -3.3 | 0.4 | -10.3 | . | . | . | -24.0 | -1.5 | .
Cc1ccc(C)c(S(=O)(=O)NCc2ccc(C(=O)N3CCCCC3C)cc2)c1 (stereo not given) | . | -1.6 | 9.8 | -4.1 | . | . | . | -2.6 | -1.1 | .
CCCCOc1ccc(C(=O)OCC(=O)Nc2cc(C)c(C)cc2[N+](=O)[O-])cc1 | i | -3.5 | -6.8 | 5.7 | 1.6 | -2.7 | 1.5 | -12.7 | -5.0 | -0.4
CCOC(=O)c1sc2nccc(OC)c2c1N=CN(C)C | . | -3.4 | 5.0 | 7.1 | 18.5 | 11.1 | -2.3 | -13.3 | 2.1 | -0.6
CC(=O)Cn1nnc(-c2ccc(C(F)(F)F)cc2)n1 | i | 0.3 | -9.1 | 17.3 | -0.5 | -0.6 | -2.3 | 28.2 | 2.0 | -0.4
CCNC(=O)COC(=O)c1cc(C)nc2ccccc12 | i | -0.3 | -15.4 | -3.5 | 11.5 | 0.1 | -0.8 | -2.2 | -3.9 | -1.9
CCOc1ccc(N(CC(=O)NC2CCCC2)S(=O)(=O)c2ccccc2)cc1 | i | -0.7 | 6.2 | . | -0.5 | 5.6 | 0.4 | -0.7 | -0.5 | 1.8
O=C(O)C1CC=CCC1C(=O)Nc1ccc2c(c1)CCC2 (stereo not given) | i | 7.3 | -8.5 | 17.9 | -2.6 | 3.6 | -1.7 | 3.1 | . | -2.4
CCn1c(CNC(=O)c2ccco2)nnc1SCC(=O)Nc1ccccc1Cl | i | 2.3 | 14.6 | . | . | . | . | -30.7 | 3.6 | -0.1
CN1CCN(C(=O)CCN2C(=O)c3ccccc3S2(=O)=O)CC1 | i | 3.3 | -13.8 | -7.3 | 5.7 | 19.6 | 1.6 | 13.8 | . | -0.9
CC(C)CN(Cc1cc(=O)oc2cc(-c3ccccc3)c(O)cc12)CC(C)C | i | 2.7 | 17.5 | 0.1 | 6.9 | -1.0 | 1.9 | -1.7 | 41.8 | 4.9
CCOC(=O)C1=C(O)/C(=C/c2cccc(OC)c2O)N=C1C | i | 3.5 | -9.1 | 78.2* | 3.3 | 2.9 | 1.5 | -0.1 | . | 4.5
CCOc1ccc(/C=N/n2nnnc2N)cc1O | i | ? | 9.8 | . | 4.4 | -0.2 | -8.2 | -4.9 | 1.3 | -0.4
CCOCCn1cnc2sc(C(=O)NCCCN3CCOCC3)c(C)c2c1=O | i | 2.0 | 1.4 | -2.1 | 5.9 | 16.6 | -0.7 | 16.1 | -5.0 | -2.8
COc1ccc(-c2nc3ccccc3c(=O)n2NC(=O)Cc2ccccc2)cc1 | i | -2.5 | 4.5 | -0.9 | 9.1 | 8.5 | -0.1 | -32.7 | 1.4 | -4.1
CCOC(=O)c1cc2c(=O)n3ccccc3nc2n(CCCOC)c1=NC(=O)C(C)(C)C | . | 0.1 | 15.7 | -1.8 | . | . | . | 4.5 | 5.0 | .
O=c1oc2ccccc2c2c1C(O)CO2 (stereo not given) | i | -0.3 | -6.8 | -10.7 | 20.0 | 19.9 | 0.7 | 0.4 | -5.1 | 0.6
CCCn1c(=N)n(CC(=O)c2cccs2)c2ccccc21 | i | -0.1 | -7.3 | -5.6 | 0.3 | -6.7 | -3.2 | 24.5 | -3.4 | 3.0
COc1ccc(CN2CC(C(=O)NCCCN3CCN(C)CC3)CC2=O)cc1 (stereo not given) | . | 2.1 | -12.2 | -3.0 | . | . | . | -29.5 | -1.6 | .
COc1ccc(NC(=O)NNc2cc(N3CCOCC3)nc(N3CCOCC3)n2)cc1 | i | 65.8* | -14.2 | 59.4 | 9.5 | 14.3 | 55.4 | 12.0 | -0.6 | -1.0
CCCCSc1cc(C)nc(N)n1 | i | -0.6 | 12.8 | 0.0 | 6.8 | -1.1 | -13.7 | -5.5 | -3.0 | 0.1
O=c1[nH]cc(N=Cc2cc([N+](=O)[O-])ccc2O)c(=O)[nH]1 | . | 10.6 | -9.8 | -6.9 | . | . | . | 93.3* | -1.8 | .
CCC(NC(=O)c1cc(COc2ccc(Cl)cc2OC)on1)c1ccncc1 (stereo not given) | i | 5.2 | 6.0 | -2.4 | -8.2 | -12.0 | 0.0 | 7.0 | 7.9 | 0.2
COc1ccc(C2C(C#N)=C(N)SC(N)=C2C#N)cc1OC | . | 47.5* | 13.9 | 1.3 | . | . | . | -1.1 | -1.8 | .
Cc1nc(SCC(=O)OCc2ccccc2)c(C#N)c(-c2ccccc2)c1C(=O)Nc1ccccc1 | . | -0.8 | 14.6 | -0.6 | . | . | . | 14.1 | 5.8 | .
Cc1ccc(CN2C(=O)S/C(=C\c3ccccc3OCC(=O)O)C2=O)cc1 | i | -1.9 | 19.5 | 97.0* | -45.6 | -58.3 | -9.1 | 18.4 | -5.9 | 2.1
Cc1ccccc1NC(=O)COC(=O)c1cc(=O)c2ccccc2o1 | . | 0.7 | -8.7 | -3.8 | . | . | . | 12.8 | -3.7 | .
CN(C(=O)C1CCCO1)c1nnc(-c2ccccn2)s1 (stereo not given) | . | 8.9 | 9.5 | -1.0 | . | . | . | -4.7 | -1.1 | .
CCN1C(=O)C2(/C(=C(\O)c3ccc4c(c3)OCCO4)C(=O)C(=O)N2CCCOC)c2ccccc21 (stereo not given) | . | -3.5 | -13.5 | 0.9 | . | . | . | -0.8 | 2.7 | .
CC(=O)Nc1ccc(S(=O)(=O)NCC2CCC(C(=O)N3CC(C)CC(C)C3)CC2)cc1 (stereo not given) | i | 1.0 | 11.1 | -8.6 | -4.1 | 8.9 | 0.7 | -4.9 | -0.6 | 4.1
O=C(COC(=O)c1ncc(Cl)c(Cl)c1Cl)c1ccc(Cl)s1 | . | -2.4 | -12.0 | -8.4 | . | . | . | 15.4 | -2.6 | .
Cc1cc(C(C)(C)C)c(O)c(C)c1CC1=NCCN1 | i | -0.3 | 18.0 | 13.3 | . | . | . | . | 1.1 | -2.6&1.2
CCCCc1c(O)nc(SCC(=O)N2CCOCC2)n(-c2ccccc2C)c1=O | . | -0.7 | -6.7 | 31.5 | . | . | . | -8.9 | -3.2 | .
CC(C(=O)Nc1c2c(cc3c1CCC3)CCC2)N1CCCC1 (stereo not given) | . | 3.7 | -8.3 | -3.5 | . | . | . | -7.5 | -2.1 | .
COc1ccc(NC(=O)c2cnc(C)cn2)cc1-n1cnnn1 | . | 0.9 | -5.5 | -3.1 | . | . | . | 10.3 | -5.7 | .
CCCCN1CN(Cc2ccco2)CNC1=S | i | 2.5 | 5.9 | -1.8 | 4.4 | 8.4 | -1.1 | -1.8 | -1.9 | -5.9
COC(C(=O)NC(C(C)C)C(C)C)c1ccccc1 (stereo not given) | . | 0.5 | -2.3 | -6.9 | . | . | . | -7.8 | -2.7 | .
COc1ccc(OC)c(/C=N/NC(=O)c2cc(-c3ccc(C)o3)nc3ccccc23)c1 | . | 2.8 | -22.2 | . | . | . | . | -1.5 | 9.3 | .
CC(=O)N1CCc2cc(S(=O)(=O)NC(C(=O)Nc3ccc4c(c3)OCCO4)C(C)C)ccc21 (stereo not given) | . | -0.7 | -6.2 | . | . | . | . | -1.0 | -8.2 | .
CC(C)(C)n1nnnc1C(c1cccnc1)N1CCN(c2ccccn2)CC1 (stereo not given) | . | 0.9 | 49.2 | -5.4 | 15.7 | 4.5 | -0.5 | -4.3 | 1.6 | 0.8
CCc1ccc(C(=O)COC(=O)c2cccnc2Cl)cc1 | i | 4.2 | -12.2 | -9.4 | -4.7 | -9.2 | -0.4 | 12.4 | -5.6 | -1.0
CCC(C)c1ccc(S(=O)(=O)N2CCN(S(=O)(=O)c3ccc(NC(C)=O)cc3)CC2)cc1 (stereo not given) | i | 2.8 | 3.1 | 0.5 | 8.2 | 20.9 | -0.7 | 1.3 | -5.6 | 0.1
O=C(Cc1ccccc1[N+](=O)[O-])N1CCN(c2ccc(F)cc2)CC1 | i | 0.3 | -5.1 | 36.0 | -6.3 | -14.3 | -4.4 | 11.2 | -0.5 | -0.5
O=C(c1ccc(COc2ccccc2Cl)o1)N1CCCC1 | . | 2.7 | 3.5 | -3.3 | . | . | . | -1.0 | -5.0 | .
CC(C)Nc1oc(Cc2cccc3ccccc23)nc1C#N | i | -0.3 | 9.0 | . | -14.0 | -7.8 | -7.2 | 15.1 | 5.3 | 4.6
COc1ccc(CCNC(=O)CSc2nnc(NC(C)=O)s2)cc1OC | i | 1.5 | -7.1 | . | 21.6 | 7.6 | 1.3 | 5.4 | -6.1 | 3.4

Individual results from the list.
CC(C)Nc1oc(Cc2cccc3ccccc23)nc1C#N in rRNA inh HTS reads -14.0
CC(=O)N1CCc2cc(S(=O)(=O)NC(C(=O)Nc3ccc4c(c3)OCCO4)C(C)C)ccc21 (stereo not given) in RanGTP-Imp inh reads -0.7

Fetched by structure from the entries so far (2):
SMILES | FGF22 binding | RanGTP-Imp inh | T cruzi repl | ALR H2O2 inh | rRNA inh HTS | rRNA inh HTS OD600 | rRNA inh HTS RFP | Calb FLC | Beta apoptosis | AF4-AF9 inh
CCOc1ccc(/C=N/n2nnnc2N)cc1O | i | ? | 9.8 | . | 4.4 | -0.2 | -8.2 | -4.9 | 1.3 | -0.4
CCC(C)c1ccc(S(=O)(=O)N2CCN(S(=O)(=O)c3ccc(NC(C)=O)cc3)CC2)cc1 (stereo not given) | i | 2.8 | 3.1 | 0.5 | 8.2 | 20.9 | -0.7 | 1.3 | -5.6 | 0.1

Compound activity as filed in PubChem BioAssay.
